# Assay outcomes as filed in PubChem.
# Bfl-1 A1 inh – caspase 3/7 activation in MEF A1-2A-BIM cells, primary screen, A1 inhibitor project, cell-based, luminescence, HTS. AID 2462, 2010. 330,000 tested, 0.066% active. caspase activation, % (concentration not given with the values). Caspase-Glo 3/7 luminescence, 3 h; percent of clofoctol response, vehicle zero;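 active = over half of replicate activation scores above 10%, or exactly half above 10 with the replicate mean above 10; inconclusive = replicate mean below 10 yet half the replicates above 10; inactive = over half of replicates below 10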;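 note: wells of about 30 µL received 50 nL stock; many hits fall short of the cut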
# ALR inh – inhibitors of human ALR sulfhydryl oxidase, primary screen, biochemical, H2O2 detection, HRP-luminol luminescence, single point | 290,000 tested, 3.8% active | FAD-linked sulfhydryl oxidase ALR (Homo sapiens), P55789 | inhibition, % (test concentration not listed) | purified ALR, DTT oxidation | AID 485317, 2010;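 active = mean and each replicate at 75% or more; inconclusive = only one of the two met; inactive = neither met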;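 note: stock transfer was 7.5 nL into about 7.5 µL; 0% = neutral wells and 100% = wells with inactivated enzyme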
# Target sequence (P55789 whole entry, looked up): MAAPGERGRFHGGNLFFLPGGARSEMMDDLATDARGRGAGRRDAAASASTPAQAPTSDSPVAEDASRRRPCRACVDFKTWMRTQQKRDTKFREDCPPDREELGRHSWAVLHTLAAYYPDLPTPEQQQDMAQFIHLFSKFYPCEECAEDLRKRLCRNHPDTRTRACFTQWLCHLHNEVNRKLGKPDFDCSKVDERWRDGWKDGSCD
# LANA-H2A inh – blockers of LANA interaction with H2A/H2B – biochemical, FP readout, HTS, primary screen; inhibition, % (no concentration beside the values); Protein LANA1 (Human herpesvirus 8 type P (isolate GK18)), Q9QR71; 320,000 tested, 0.6% active; cell-free LANA-H2A/H2B peptide, fluorescence polarization; in the data active = inhibition mostly above about 10%, no sharp cut-off; inactive = mostly below about 6.7%;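 note: stock transfer was 7.5 nL into about 10 µL; 0% = median of vehicle wells and 100% = median of positive control wells; one replicate is shown; the record names a cut of 25% in any replicate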
# Beta apoptosis – inhibitors of cytokine-induced beta cell apoptosis, primary screen, luminescence; INS-1E cytokine-induced death, ATP luminescence, 48 h; percent of positive-control rescue, neutral wells zero; protection from apoptosis, % (test concentration not listed); 300,000 tested, 0.8% active; AID 435005, 2010;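 active = all replicates at 75% or more, or half of them and the mean; inconclusive = half reach 75% but not the mean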;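 note: 0% = cytokine-treated negative control wells and 100% = positive control rescue; higher means more ATP so stronger rescue from cytokine killing; wells of about 40 µL received 100 nL stock; the first replicate is given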
# Calb FLC – C. albicans growth inhibition with fluconazole, primary screen, CaCi-2 strain, Alamar Blue fluorescence; C. albicans CaCi-2 (fluconazole-resistant clinical isolate) + fluconazole, 48 h; growth inhibition, % (no concentration beside the values); 300,000 tested, 0.57% active;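 active = most replicates above 75%; inconclusive = exactly half above 75%; inactive = most below 75%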;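 note: all wells also contain fluconazole at 8 µg/ml as a sub-toxic cotreatment; 0% = median of DMSO wells and 100% = median of geldanamycin control wells; wells of about 8 µL received 7.5 nL stock; the first replicate is given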
# B2AR ag – beta2AR agonists driving receptor internalization, primary screen, cell-based, FAP fluorogen, flow cytometry; Am2.2-beta2AR cells; reference of the scale not given here; response, % (test concentration not listed); 340,000 tested, 0.43% active;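 active = response above a set limit, near 3 SD of response in nonfluorescent compounds, cut at about 42% in these data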;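 note: stock transfer was 100 nL into about 11 µL; a reference agonist was the positive control; negative values mostly stem from fluorescent compounds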
# Target sequence (P07550 whole entry, looked up): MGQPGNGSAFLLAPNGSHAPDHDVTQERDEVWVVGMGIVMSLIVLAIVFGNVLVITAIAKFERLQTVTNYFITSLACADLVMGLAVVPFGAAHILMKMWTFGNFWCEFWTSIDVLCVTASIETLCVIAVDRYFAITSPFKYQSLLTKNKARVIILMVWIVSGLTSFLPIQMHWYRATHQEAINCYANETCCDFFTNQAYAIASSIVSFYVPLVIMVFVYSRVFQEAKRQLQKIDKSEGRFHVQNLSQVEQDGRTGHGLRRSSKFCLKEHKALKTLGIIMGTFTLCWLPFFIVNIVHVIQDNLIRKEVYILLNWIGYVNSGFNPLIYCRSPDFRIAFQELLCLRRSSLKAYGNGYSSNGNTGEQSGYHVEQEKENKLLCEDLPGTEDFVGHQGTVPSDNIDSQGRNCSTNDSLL
# rRNA inh HTS – reduced GFP signal of wild-type E. coli, primary screen, bacterial rRNA inhibitor project, GFP/RFP fluorescence, OD600, single point; E. coli WT GFP vs humanized-ribosome RFP mutants, 24 h; stronger effect = lower value; DMSO median 0, no signal -100; GFP signal change (wild-type ribosome), % (concentration not given with the values); 350,000 tested, 1.6% active;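 active = significant combined selectivity score with lowered wild-type GFP, culture density cut under 30%, mutant RFP and density less affected; inactive = any of these conditions unmet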; note: one replicate is shown; some compounds called inactive have numbers as strong as hits
# T cruzi inh – inhibitors of intracellular T. cruzi growth, primary screen, luminescence, NIH3T3 host cells. inhibition, % (concentration not given with the values). T. cruzi beta-gal in NIH3T3, 90 h. 300,000 tested, 1.4% active. AID 1885, 2009;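 active = mean inhibition across valid replicates above about 55%, limit read from the data; inconclusive = mean below that limit but half or more replicates reach it; inactive = mean below it, under half of replicates reach it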;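 note: signal also drops with host cell toxicity which is not excluded here; 0% = plate median of DMSO wells and 100% = zero luminescence signal; higher percent means less beta-gal luminescence so fewer parasites; stock transfer was 50 nL into about 50 µL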
# rRNA inh HTS OD600 – second read-out of rRNA inh HTS, no call of its own (marks repeat the call); OD600 change, %; measured here: OD600 growth;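 optical density of the mix in the first replicate; 0 = DMSO median and -100 = no signal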
# rRNA inh HTS RFP – recorded beside rRNA inh HTS, whose call it bears; RFP signal change, %; measured here: RFP humanized mutant strains;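 first replicate; 0 = DMSO median and -100 = no signal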
# The depositor's hits bear a star; ? = inconclusive; . = not tested or not shown.
SMILES,Bfl-1 A1 inh,ALR inh,LANA-H2A inh,Beta apoptosis,Calb FLC,B2AR ag,rRNA inh HTS,rRNA inh HTS OD600,rRNA inh HTS RFP,T cruzi inh
CC(=O)NC/C(C)=N\Nc1ccc([N+](=O)[O-])cc1,0.0,.,0.5,5,113*,-7,.,.,.,-3
CC(=O)Nc1ccc(S(=O)(=O)NCCS(=O)(=O)N2CCN(c3ccccc3)CC2)cc1,0.5,0,-2.5,.,5,3,-4,8,1.2,3
COc1cc(NC(=O)c2cc(-c3ccccc3)on2)cc(OC)c1OC,0.2,-5,-2.0,2,20,-8,1,0,-5.5,-4
CCCN(CCC)CC(O)CN(c1cc([N+](=O)[O-])ccc1OC)S(=O)(=O)c1ccccc1 (centres undefined),-0.3,-5,3.1,-5,-6,12,.,.,.,-19
COc1cc(CNCCCN2CCOCC2)ccc1OCC(=O)NC(C)(C)C,0.6,-10,-1.7,-2,-10,6,25,18,1.3,16
CCCc1cc(=O)oc2c(C)c(O)c(CN3CCCCC3)cc12,-0.2,-2,6.4,0,10,-2,.,.,.,5
O=C(NC12CC3CC(CC(C3)C1)C2)c1cccc([N+](=O)[O-])c1,0.7,2,-0.7,2,-1,12,0,-4,-1.5,-11
CCOc1ccc(/C=C2\C(=O)c3ccccc3OC2c2ccccc2)cc1 (centres undefined),0.1,3,3.3,8,?,7,.,.,.,8
C=CCOc1c(Cl)cc(CNCCC)cc1Cl,.,-4,8.6,-3,-30,8,.,.,.,15
COc1ccc(-n2ccnc2SCC(=O)NO)cc1,0.2,72,-4.9,-5,-8,0,1,-2,-4.5,12
CCOC(=O)N1CCC(N(CCN(C)C)C(=S)Nc2cccc(Cl)c2)CC1,-0.6,4,-1.9,-12,2,-3,-3,-5,-2.2,18
CCOc1cc(/C=C2/NC(=O)N(CC(=O)Nc3cccc(C)c3)C2=O)ccc1OC,-0.7,1,0.5,-6,4,3,2,5,-1.3,-11
Cc1sc2ncnc(SCC(=O)NC(=O)NCc3ccco3)c2c1C,-0.2,6,-2.2,0,-4,-10,-1,-1,9.8,10
CN(CC(=O)Nc1ccccc1C(F)(F)F)C(=O)CSCc1ccc(Cl)c(Cl)c1,0.6,-57,-11,-4,3,12,-6,-2,-1.7,3
CCCC(=O)Nc1cc(C(=O)O)ccc1Sc1ccccc1,0.4,2,-3.3,3,0,-2,0,-7,-3.9,-6
O=C(NC1CCCCC1)C(c1ccc(Cl)cc1)N(C(=O)c1ccccn1)c1cccnc1 (centres undefined),2.3,-6,1.4,-9,9,.,.,.,.,-3
COc1ccc(-c2c(C)nn3c(N4CCOCC4)cc(C)nc23)cc1OC,-0.7,55,2.9,0,-1,-3,2,1,8.6,-9
CS(=O)(=O)NCc1ccc(C(=O)NCCOc2ccccc2)cc1,0.6,-11,2.8,0,-2,8,3,7,-4.2,-8
CC1CC(C)(C)NC(=S)N1CC(=O)N1CCN(Cc2ccc3c(c2)OCO3)CC1 (centres undefined),0.1,0,-3.4,1,1,2,3,8,0.5,-2
O=C(NCc1ccccc1)c1cc[n+](Cc2ccccc2)cc1,0.9,-21,-1.4,-1,-9,2,15,3,5.2,-5
COc1ccc(C(=O)O/N=C(\N)c2ccccc2Cl)cc1OC,-1.2,10,1.0,11,-4,6,-9,-3,-0.9,10
CC(C)c1ccc(NC(=O)CSc2nc3ccsc3c(=O)n2CCC(=O)O)cc1,-0.4,?,1.0,-3,-8,1,-9,-34,-2.9,-6
C=C(C)Cn1c(-c2ccncc2)n[nH]c1=S,0.2,51,2.4,-4,3,26,10,1,1.7,-11
CSc1ncccc1C(=O)NNC(=O)c1ccc(NS(=O)(=O)c2cccs2)cc1,-1.1,7,-6.9,.,-2,0,12,4,4.1,-22
O=C(Nc1ccc(N2CCCCC2)c(Cl)c1)c1ccc2c(c1)OCCO2,-0.5,1,3.1,8,-7,9,.,.,.,7
O=C(O)CC(=O)Nc1ccccc1,-2.4,-3,3.0,.,-3,4,.,.,.,-5
COC(=O)C1=NN(c2ccc(C)cc2)C2(S1)SC(C(C)=O)=C(C)N2c1ccccc1 (centres undefined),-0.1,-7,3.0,-1,-6,25,13,7,1.9,6
Nc1c(C(=O)O)cnn1-c1ccc([N+](=O)[O-])cc1,-1.1,-1,0.0,-2,0,-4,8,-1,-2.4,-1
O=c1[nH]cnc2c1nnn2Cc1ccccc1,0.1,2,0.1,-11,4,-6,8,14,3.6,6
Cc1cc(NC(=O)COC(=O)CCC(=O)c2ccc(F)cc2)no1,0.0,-2,4.2,-6,-4,29,.,.,.,1
O=C(O)CCC(=O)NCc1cn(-c2ccccc2)nc1-c1cccc(Br)c1,0.4,-3,3.0,-11,-11,-14,-10,-12,-7.1,-5
COc1ccc(CCNC(=O)C(C(=O)c2ccc(F)cc2)n2ccccc2=O)cc1OC (centres undefined),-0.3,1,-3.7,-1,-7,4,-3,3,-0.9,-8
CCOC(=O)c1cc(-c2ccncc2)nc2c1c(C)nn2-c1ccccn1,-1.7,.,-0.1,-4,31,3,.,.,.,-8
O=S(=O)(c1ccc(Br)s1)N1CCN(c2ccccc2)CC1,0.3,-4,-11,-7,-22,4,.,.,.,5
COc1cccc(/C=N\NS(=O)(=O)c2ccccc2)c1OC,0.8,-1,3.5,-6,-7,2,7,5,3.7,0
C/C(CC1CC2=C(CC1(C)C)C(C)(C)CCC2)=N\NC(N)=S (centres undefined),0.5,-7,7.4,.,-3,16,.,.,.,56*
COc1ccc2nc(NCCCNC(=O)c3cc(OC)c(OC)c(OC)c3)c(C#N)cc2c1,0.8,-26,-0.1,2,-1,-1,.,.,.,27
CC(C)OCCCNC(=O)CNC(=O)c1ccc(Cl)c(Cl)c1,1.2,1,-4.3,0,-7,-6,14,9,-0.2,2
C[C@H](CO)N1C[C@H](C)[C@@H](CN(C)C(=O)Nc2ccc(C(F)(F)F)cc2)Oc2c(NC(=O)Cc3ccccc3)cccc2C1=O,-0.1,-4,1.3,4,.,1,9,9,-5.0,.
C[n+]1ccccc1/C=C/c1ccccc1Cl,1.7,-17,-2.1,-8,0,3,7,6,3.2,15
CCC(C)NC(=O)Cn1cc(S(=O)(=O)N2CCN(c3ccccc3F)CC2)c2ccccc2c1=O (centres undefined),0.8,-2,1.2,-5,-12,-3,-12,-7,0.6,25
Cc1ccc(S(=O)(=O)C2(S(=O)(=O)c3ccc(C)cc3)CCCC2)cc1,0.3,.,1.6,-9,-32,-6,.,.,.,4
CCOC(=O)CSc1nc2sc3c(c2c(=O)[nH]1)CCCC3,0.6,.,1.2,-3,-7,0,5,7,-0.1,-7
CCCc1cc(C(=O)Nc2nccs2)cs1,-6.8,-3,4.6,-29,-1,-21,.,.,.,8
CCOC(=O)c1cccc(NC(=O)Nc2cc(OC)ccc2OC)c1,0.9,.,-1.8,5,14,7,.,.,.,-8
CCCCN(Cc1ccccc1)C(=O)C1CCC(=O)N(CCc2ccccn2)C1 (centres undefined),0.2,-2,-2.8,-7,-2,-3,2,8,0.4,-4
CC(C)(C)c1ccc(OCc2ccc(C(=O)NN)o2)cc1,0.8,-27,2.1,-5,2,6,-7,-8,-6.7,15
COc1ccccc1N1CCN(C(=O)COc2cc(C)ccc2C)CC1,0.2,1,-1.6,-6,9,-1,10,0,-5.9,7
CCCCCn1c(N2CCN(c3cccc(Cl)c3)CC2)nc2c1c(=O)[nH]c(=O)n2C,0.7,-1,0.4,18,4,17,.,.,.,53
Brc1ccc(N=C(c2ccccc2)c2ccncc2)cc1,-1.1,-6,1.4,-3,-2,32,.,.,.,-9
CCC(=O)N1c2ccc(S(=O)(=O)CCC(=O)N3CCN(c4ccccc4F)CC3)cc2CC1C (centres undefined),0.4,-1,-5.3,-11,3,-14,-12,-16,1.2,-3
COc1ccc(S(=O)(=O)N2CCC(C(=O)Nc3ccccc3N3CCCCC3)CC2)cc1OC,-0.7,-6,6.9,7,-1,1,15,14,-1.5,13
Cn1ccc(C(=O)OCC(=O)c2ccccc2)n1,-5.1,-3,5.4,-6,1,-15,.,.,.,-2
Cc1ccc(-c2nc3ccccc3[nH]2)cc1NC(=O)c1ccco1,-0.5,3,6.2,1,?,-1,.,.,.,13
CCN(C(=O)COC(=O)c1ccccc1OCc1ccc(Cl)cc1)C1CCS(=O)(=O)C1 (centres undefined),0.8,-7,1.7,4,.,6,-4,-27,1.3,.
CC1(C)CN(c2ccc(-c3ccnc4ncnn34)cc2)C1=O,-2.5,3,3.6,1,13,-11,8,3,2.2,-11
O=S(=O)(c1ccc(Cl)cc1)N1CCN(Cc2ccc(O)c3ncccc23)CC1,-0.2,-2,4.3,86*,95*,3,-37,-65,-20,55*
CC12COC3(C(=O)Nc4ccc(Cl)cc4)CC1CCC32C (centres undefined),0.8,.,0.1,-14,-3,-6,.,.,.,-5
Cc1nc2n(n1)C(O)c1cc([N+](=O)[O-])ccc1S2 (centres undefined),-0.5,-12,4.5,12,3,.,.,.,.,-39
COc1ccc(N=Cc2c(O)n(-c3cccc(C)n3)c(=O)c3ccccc23)c(OC)c1,0.9,-13,5.2,1,2,10,-21,19,-8.6,10
# Later entries
SMILES,Bfl-1 A1 inh,ALR inh,LANA-H2A inh,Beta apoptosis,Calb FLC,B2AR ag,rRNA inh HTS,rRNA inh HTS OD600,rRNA inh HTS RFP,T cruzi inh
Cc1ccc(CNC(=O)C2=NNC(=O)CC2)cc1,0.5,-5,-3.2,-4,-1,-11,.,.,.,-11
Cc1occc1C(=O)N/N=C/C=C\c1ccccc1[N+](=O)[O-],1.4,3,4.4,9,-4,-3,0,1,2.2,-7
CCCCNC(=O)N1CCN(C(c2ccccc2)c2ccccc2)CC1,0.1,-2,1.1,7,8,-1,.,.,.,13
COc1ccccc1NC(=O)Cn1ncc2c1-c1ccccc1OC2,0.7,2,0.8,-5,6,-4,4,3,-1.9,4
Cc1occc1C(=O)N1CCCC(N2CCN(c3cccc(C(F)(F)F)c3)CC2)C1 (centres undefined),-0.7,0,-0.7,?,-2,6,-40,-63,-5.5,9
COc1ccc2c(c1)CC/C2=N\NC(=O)c1ccccc1,-0.7,-5,-0.5,4,-4,0,.,.,.,2
Cc1c(C)c(C)c(C(=O)C2CCN(c3ccc([N+](=O)[O-])cn3)CC2)c(C)c1C,0.1,-9,-1.2,-5,-8,1,18,12,-1.1,4
COc1ccc(NC(=O)CSc2nc(N3CCCCC3)nc(N3CCCCC3)n2)cc1,0.9,-1,-0.6,3,?,-5,.,.,.,18

# Some of the compounds tested. The share of hits here may be higher or lower than overall.
